Screening data (PubChem)
LASV entry inh: qHTS for Inhibitors of binding or entry into cells for Lassa Virus. Potency, µM (highest dose often 37.9 µM), for the others: at the top dose activity change, negative = inhibition, hits mostly inhibitors. actives 1.2% (n = 300,000). Lassa virus pseudotype entry inhibition, cell reporter; control for the full effect not named in the record; active means well fitted inhibition curve with a large enough effect; inconclusive means small, poorly fitted or top-dose-only effect, or effect the other way; inactive means flat fitted curve, though single readings scatter; tested in HEK293 cells; also: % is scaled to controls: 0 for no effect and ±100 for the full control effect; nearly all actives have a fitted effect of over 50% in size; luciferase read-out
MARV entry inh: qHTS for inhibitors of binding or entry into cells for Marburg Virus. AID 540276, 2011. Potency, µM (top dose mostly 37.8 µM), inactives show top-dose activity change, negative = inhibition, most hits filed as inhibitors. Marburg virus pseudotyped entry inhibition, cell reporter; control for the full effect not named in the record; about a third of the inactives were read at about 46 µM. actives 1.8% (n = 300,000); active = well fitted inhibition curve with a large enough effect; inconclusive = small, poorly fitted or top-dose-only effect, or effect the other way; inactive = flat fitted curve, though single readings scatter; tested in HEK293 cells; about a fifth of its hits are not listed in these tables; also: % is scaled to controls: 0 for no effect and ±100 for the full control effect; luciferase read-out
StopGo reporter: High Throughput Screening for Foot and Mouth Disease Virus Antivirals. human cells with a luciferase reporter of 2A StopGo recoding; control for the full effect not named in the record. Potency, µM (series often up to 57.9 µM), for inactives: at the top dose signal change, negative = less light. actives 1.2% (n = 410,000); active = well fitted falling curve with a large enough effect; inconclusive = small, poorly fitted or top-dose-only effect; inactive = no such curve, though single readings can be large or run the other way; tested in HEK293T cells; also: % is scaled to controls: 0 for no effect and ±100 for the full control effect; nearly all actives have a fitted effect of over 45% in size; luciferase light after 4 h
RE007 growth inh: qHTS Assay for Inhibitors of the HIV-1 protein Vpr. S. pombe RE007 Vpr strain, BacTiter-Glo ATP luminescence, 24 h; control for the full effect not named in the record. Potency, µM (top dose mostly 92.2 µM), inactives show at the top dose activity change, negative = less growth. actives 0.21% (n = 360,000). AID 651644, 2012; active = well fitted falling curve with a large enough effect; inconclusive = small, poorly fitted or top-dose-only effect; inactive = no such curve, though single readings can be large or run the other way;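 also: % is scaled to controls: 0 for no effect and ±100 for the full control effect; nearly all actives have a fitted effect of over 50% in size; the assay follows cell death caused by Vpr and the record does not say whether a fall means rescue or toxicity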
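Fission yeast RE007 carrying one integrated HIV-1 vpr copy, seeded at OD 0.01 in PMG+AL medium with 23 nL pinned compound. Grown 24 h at 30 degrees; viability read by BacTiter-Glo luminescence after 5 min.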
SARS PLP yeast: qHTS of Yeast-based Assay for SARS-CoV PLP; S. cerevisiae expressing SARS-CoV PLpro, growth rescue; control for the full effect not named in the record; actives 0.19% (n = 330,000); Potency, µM (top dose mostly 32.9 µM), for the others: at the highest dose activity, positive = growth rescue; active means well fitted rising curve with a large enough effect; inconclusive means small, poorly fitted or top-dose-only effect; inactive means no such curve, though single readings can be large or run the other way; also: 0% is about no effect; nearly all actives have a fitted effect of over 55% in size; growth read by luminescence after 48 h
Cruzain inh Det: qHTS Assay for Promiscuous and Specific Inhibitors of Cruzain (with detergent). purified cruzain, Z-FR-AMC fluorescence, 0.01% Triton. Potency, µM, without a hit: max response, negative = inhibition, actives largely listed as inhibitors. actives 0.43% (n = 200,000);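 also: plate controls were neutral wells for no effect and buffer without enzyme for full effect; nearly all actives have a fitted effect of over 40% in size; top concentration of the series not given in the record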
Target sequence (P25779 123-467 limits assumed): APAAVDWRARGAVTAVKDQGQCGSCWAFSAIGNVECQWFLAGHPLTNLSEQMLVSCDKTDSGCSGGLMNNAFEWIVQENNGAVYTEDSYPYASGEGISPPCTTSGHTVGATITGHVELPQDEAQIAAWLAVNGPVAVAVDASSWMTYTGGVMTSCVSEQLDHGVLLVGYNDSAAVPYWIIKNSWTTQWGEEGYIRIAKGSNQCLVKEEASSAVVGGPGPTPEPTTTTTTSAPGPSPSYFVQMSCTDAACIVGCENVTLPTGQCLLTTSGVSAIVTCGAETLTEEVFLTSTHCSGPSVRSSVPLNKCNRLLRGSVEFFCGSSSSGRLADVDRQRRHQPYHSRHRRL
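Enzyme 1.5 nM, Z-FR-AMC 2 uM, NaOAc 100 mM pH 5.5, DTT 5 mM, Triton X-100 0.01%; 15 min RT compound preincubation; kinetic ex360/em450, 60 s delta.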
NS1 inh: qHTS Assay for Inhibitors of Influenza NS1 Protein Function | AID 2326, 2010 | actives 0.4% (n = 270,000) | Potency, µM (series often up to 46.1 µM), for the others: top-dose activity, positive = more growth | S. cerevisiae slowed by influenza A NS1, growth recovery by OD600; active means well fitted rising curve with a large enough effect; inconclusive means small, poorly fitted or top-dose-only effect; inactive means no such curve, though single readings can be large or run the other way; also: nearly all actives have a fitted effect of over 50% in size
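Compounds were scored for reversing the slow growth caused by influenza A NS1 in S. cerevisiae, measured by optical density at 600 nm. Assay medium contained 2% galactose at pH 6.0; NS1-free yeast of the same strain were the positive control.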
Cruzain noTriton: qHTS Assay for Promiscuous and Specific Inhibitors of Cruzain (without detergent); Cruzipain (Trypanosoma cruzi), P25779; AID 1476, 2009; Potency, µM, inactives show max response, negative = inhibition, hits mostly inhibitors; purified cruzain, Z-FR-AMC fluorescence, no detergent; actives 2.3% (n = 200,000);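 also: plate controls were enzyme without inhibitor for no effect and buffer without enzyme for full effect; nearly all actives have a fitted effect of over 40% in size; top concentration of the series not given in the record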
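Detergent-free condition (0.00005% Triton X-100) in acetate buffer pH 5.5 with DTT. 1.5 nM enzyme and compound were pre-mixed 15 min, then 2 uM Z-FR-AMC substrate added; reaction progress from fluorescence change between first and third reads (60 s).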
* marks the source's active call; other numbers are inactive results; u = inconclusive; x = no result given; & = joins results of further samples; [ ] = remark or other dose. Unless noted, calls follow the shape of the dose curve; as a rule, active = well fitted curve in the direction sought with a large enough effect; inconclusive = small, poorly fitted or top-dose-only effect, or another doubt; inactive = no such curve, though single readings can be large; an effect the other way counts as inactive or inconclusive. Potency is read from the fitted curve at half-maximal effect. Rows are unselected. Share with any hit: about 4.7%.

SMILES	LASV entry inh	MARV entry inh	StopGo reporter	RE007 growth inh	SARS PLP yeast	Cruzain inh Det	NS1 inh	Cruzain noTriton
COc1ccc(-c2nnc(SCc3cc(=O)c4cc(C)cc(C)c4[nH]3)n2C)cc1	-23%[46.1 µM]	x	16µM*	x	x	1.0%	x	12%
COC(=O)CCN(Cc1ccccc1)S(=O)(=O)c1ccccc1Br	x	2%	-6%	-26%	-10%	x	x	x
COCCn1c(SCC(=O)c2ccccc2)nc2cc(C(=O)NC3CCCC3)ccc2c1=O	11%[46.1 µM]	x	-4%	x	x	0.2%	x	8%
O=C(NCCCn1ccnc1)C1CC(c2cccc(Br)c2)=NO1 (centres undefined)	20%	22%	x	6%	-2%	-1.3%	-1%	-7%
Cc1ccc(Cl)cc1NC(=O)CN1CCN(C(=O)C2CCCO2)CC1 (centres undefined)	-4%	-3%	-4%	-9%	-3%	x	1%	x
N#CC(C(=O)Nc1ccccc1)=C1CCCCC1	5%	15%	x	-2%	-5%	2.9%	15%	-9%
Cc1ccc(S(=O)(=O)N2CCOCC2)cc1NC(=O)COC(=O)c1cc(=O)[nH]c2ccccc12	4%[46.1 µM]	1%[46.1 µM]	-11%	1%	-3%	x	-17%	x
CCCC1=C(C(=O)OCC)C(c2ccc(F)cc2)n2ncnc2N1 (centres undefined)	19%	-24%	-19%	-3%	6%	-2.0%	3%	-2%
Cc1cc(C)c2[nH]c(=O)c(CN(CC3CCCO3)S(=O)(=O)c3ccc4c(c3)OCCO4)cc2c1 (centres undefined)	-13%	-4%&8%	0%	-4%	1%	-3.8%	-45%	u
CN(C)c1ccc(N=Nc2ccccc2C(=O)OCC(=O)N(C)c2ccccc2)cc1	u	u	15%	0%	-16%	-0.8%	18%	8%
O=C(c1ccc2ncsc2c1)N1CCN(c2ccccc2Cl)CC1	u	u	-20%	1%	0%	x	x	x
Cc1[nH]c2ccccc2c1/C=N/NC(=S)NC(C)C	u	u	u	8%	-1%	x	2%	x
Cc1ccccc1NC(=O)NC1(C(=O)N2CCOCC2)CCCCC1	1%[46.1 µM]	-4%[46.1 µM]	12%	17%	0%	x	5%	x
COc1ccc(-c2cc(C(F)(F)F)n3nc(C(=O)N4CCN5CCCC5C4)cc3n2)cc1OC (centres undefined)	-21%[46.1 µM]	u	-13%	-15%	0%	x	5%	x
CC(=O)c1ccc(N2CCN(CC(=O)N(CC(C)C)c3c(N)n(CC(C)C)c(=O)[nH]c3=O)CC2)cc1	u	0%	10%	-1%	-3%	x	x	x
COc1cc2c(C(=O)N3CCN(c4cccc(C)c4)C(C)C3)cn(CC(C)C)c(=O)c2cc1OC (centres undefined)	u	u	-18%	x	x	-5.3%	x	u
C#CCCCCCCCCC(=O)NCCCC	-1%	9%[46.1 µM]	-2%	17%	-10%	x	x	x
Cc1ccc(N)cc1N	x	x	u	-4%	-2%	-0.4%	x	-2%
COc1ccc(N(C(=O)c2cccnc2)S(=O)(=O)c2ccc3c(c2)n(C)c(=O)n3C)cc1	-7%	12%&12%	-23%	4%	-2%	4.1%	-36%	u
COc1cccc(NC(=O)c2nn(C)c3c2CS(=O)(=O)c2ccccc2-3)c1	-19%[46.1 µM]	-2%[46.1 µM]	-15%	24%	1%	x	2%	x
CCCS(=O)(=O)N1CCC(C(=O)N2CCC3(CC2)OCCO3)CC1	10%	-1%	-15%	-4%	0%	4.7%	2%	12%
NC(=O)c1ccccc1-c1nc(-c2ccccc2)no1	3%	3%	54%[activator]	0%	-4%	3.1%	-15%	9%
Cc1ccccc1NC(=O)CC(C)S(=O)(=O)c1ccc2c(c1)NC(=O)CO2 (centres undefined)	19%[46.1 µM]	-9%[46.1 µM]	-14%	9%	4%	x	21%	x
CCOC(=O)c1c(NC(=O)CCCC(=O)O)sc2c1CCC2	20%[46.1 µM]	5%	-11%	8%	-1%	x	-32%	x
Cc1coc2c(C)c3oc(=O)c(CC(=O)N[C@@H](CC(C)C)C(=O)O)c(C)c3cc12	x	x	-2%	12%	0%	x	14%	x
O=C(c1ccc(Cl)cc1)C1CCN(C(=O)c2ccc(F)cc2)CC1	x	x	0%	-25%	-5%	x	-9%	x
O=C(CSc1nccn1Cc1ccc(F)cc1)NC1CCCC1	-8%	7%&7%	-22%&2%	-17%	7%	1.2%	-4%	3%
CCCc1ccc(OCc2ccccc2)c2c(=O)cc(C(=O)OCC)oc12	x	x	-4%	21%	1%	x	5%	x
O=C(CC1N=C2c3ccccc3N=C(SCC(=O)Nc3cccc(Cl)c3)N2C1=O)NCc1cccs1 (centres undefined)	-7%[46.1 µM]	u	-16%	x	x	-13%	x	-5%
CC(NS(=O)(=O)c1ccc2c(c1)c(=O)n(C)c(=O)n2C)C(=O)NC1CCCCC1 (centres undefined)	x	x	-12%	12%	0%	x	-2%	x
COCCn1c(COc2cccc(OC)c2)nnc1SCC(=O)NC1CCCCC1	8%	9%[46.1 µM]	8%	5%	-1%	x	-18%	x
CCOC(=O)C1CCC(CN(Cc2ccc(OC)cc2)S(=O)(=O)c2ccc(C)cc2)CC1 (centres undefined)	-25%[46.1 µM]	x	0%	x	x	1.2%	x	-5%
O=C(Nc1csnn1)OCc1ccccc1	2%	u	26%	-4%	x	x	x	x
COc1ccccc1CCNC(=O)C(=O)NCC1OCCN1S(=O)(=O)c1ccc([N+](=O)[O-])cc1 (centres undefined)	x	x	-8%	-5%	1%	x	-1%	x
O=C(O)c1nonc1-c1nonc1C(=O)O	-10%	14%	x	1%	u	3.0%	-1%	-8%
COc1ccc2c(c1OC)C(=O)OC2N1C(=O)CC[C@H]1C(=O)Nc1ccc2c(c1)OCO2 (some centres undefined)	x	x	2%	13%	4%	x	3%	x
CCOC(=O)C1CCCN(S(=O)(=O)CCNC(=O)c2ccccc2)C1 (centres undefined)	0%[46.1 µM]	30%	-6%	-3%	-5%	x	x	x
CC(=O)Nc1cccc(OCCCNC(=O)C2CCC2)c1	14%[46.1 µM]	-9%[46.1 µM]	-10%	11%	1%	x	2%	x
Clc1ccc(OCCN2CCCCC2)cc1Cl	5%	u	-11%	-1%	-3%	-2.5%	7%	-13%
COc1ccc(/C=C/C(=O)OCC(=O)NCc2ccco2)c(OC)c1	-6%[46.1 µM]	9%[46.1 µM]	5%	1%	0%	x	x	x
c1ccc(C(c2ccccc2)c2ccn[nH]2)cc1	x	x	16%	6%	-1%	x	4%	x
CCCCN(Cc1cc2cc(OC)ccc2[nH]c1=O)S(=O)(=O)c1ccc(C)cc1	x	x	u	-7%	1%	x	16%	x
O=C(CCC(F)(F)F)N1CCCC(CO)(CCc2ccccc2)C1 (centres undefined)	x	x	-4%	2%	-3%	x	4%	x
O=C(CSc1nc(=O)n(CCCN2CCOCC2)c2c1CCCC2)Nc1ccc(Cl)cc1	5%	-17%	-5%	-21%	-6%	x	x	x
Nc1nnc(/C=C/c2ccccc2)s1	11%	-1%[46.1 µM]	35%[activator]	0%	-1%	x	0%	x
O=C1CN(C(=O)COC(=O)C2CC(=O)N(Cc3ccco3)C2)c2ccccc2N1 (centres undefined)	-6%	-24%	-7%	1%	7%	0.7%	-1%	2%
c1ccc(-c2csc(N3CCOCC3)n2)cc1	u	8%	12%	-8%	-1%	-3.4%	-73%	-2%
COc1ccccc1N1CCN(C(=O)C(CC(C)C)NC(=O)C2CCCCC2)CC1 (centres undefined)	-10%	3%[46.1 µM]	-5%	2%	-2%	x	-9%	x
O=C(c1cc(COc2ccc(F)cc2Cl)on1)N1CCC(c2ccncc2)CC1	u	u	-28%	7%	-4%	x	-39%	x
Cc1ccc(CSc2ncc(Cl)c(C(=O)Nc3sc4c(c3C(N)=O)CCCC4)n2)cc1	10%[46.1 µM]	u	-8%	x	x	-1.4%	x	1%
CSc1ccc(S(=O)(=O)N2CCC(C(=O)NCc3cccnc3)CC2)cc1	6%[46.1 µM]	-3%[46.1 µM]	-11%	4%	-1%	x	-3%	x
COC(=O)Cc1ccc(NC(=S)N2CCN(c3ccccn3)CC2)cc1	x	x	-7%	-9%	-5%	x	10%	x
O=C(Cc1csc(NC(=O)Nc2ccc(Cl)cc2)n1)NCc1ccccn1	-17%	-16%	-21%	-10%	-1%	x	x	x
O=C(NCc1ccc(Cl)cc1)c1cc2c(s1)CS(=O)(=O)C2	x	x	-13%	5%	1%	x	15%	x
O=S(=O)(c1ccc(-c2csc(Nc3ccc(Br)cc3)n2)cc1)N1CCCC1	-7%	-18%	u	-1%	7%	-1.9%	-2%	32µM*
CCOc1ccc(C(C(=O)NC(C)(C)C)N(CCOC)C(=O)CCC(=O)Nc2ccccn2)cc1 (centres undefined)	x	-3%[46.1 µM]	9%	-6%	0%	x	-8%	x
O=C(COc1ccc(Cl)cc1)Nc1ccc2c(c1)OCO2	24%	2%[46.1 µM]	18%	168%	-5%	x	-36%	x
Cc1cc(C)cc(N(C(=O)CNC(=O)c2ccco2)C(C(=O)NC2CCCC2)c2ccncc2)c1 (centres undefined)	u	2%[46.1 µM]	-14%	-6%	1%	x	-19%	x
COc1ccc(-c2nnc(SCC(=O)Nc3ccc(F)cc3)s2)cc1	11%[46.1 µM]	x	12%	x	x	-1.5%	x	-13%
Cc1cc2oc(=O)cc(CSc3nnc(C)n3N)c2cc1C(C)C	7%	11%[46.1 µM]	-22%	-6%	5%	-14%	5%	-10%
CCOC(=O)Cc1csc(NC(=O)c2cccnc2)n1	-7%	9%	u	14%	4%	-0.8%	-3%	-7%
CCOc1ccc2ncc(S(=O)(=O)c3ccc(C)cc3)c(N3CCC4(CC3)OCCO4)c2c1	u	u	-22%	x	-9%	-6.6%	10%	u
